Source: PubChem
Mtb betalactam – beta-lactam sensitization of Mtb H37Rv, H37Rv | M. tuberculosis H37Rv growth with meropenem, percent inhibition; hits of this screen are not shown here | inhibition, % at 25 µM | 330,000 tested, 0.27% active | AID 434955, 2010;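 active = about 74% or more and at least 40 points above the plate without the antibiotic, then above 30% in a dose series; inconclusive = first-round hits that could not be retested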;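 note: growth measured after seven days incubation then overnight dye step; 0% = bacteria only wells and 100% = bacteria with antibiotic; twin plates without the antibiotic show which effects depend on it; some results filed as inactive read as strong as hits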
An asterisk follows results filed as active; u = inconclusive; & = joins results of further samples. The list is partial (hit frequency here may not be typical).

SMILES	Mtb betalactam
O=C(COC(=O)C1COc2ccccc2O1)Nc1ccccc1OC(F)F (stereo not given)	6.9
CCCCN(C(=O)C(C)Oc1ccc(Br)cc1)c1c(N)n(CC(C)C)c(=O)[nH]c1=O (stereo not given)	2.9
Cc1cc(Cl)c(C)c(S(=O)(=O)N2CCN(CC(=O)N3CCOCC3)CC2)c1Cl	-4.8
CC(=O)c1c(C)[nH]c(C(=O)NNC(=O)c2ccc(Br)cc2)c1C	-3.8
CCOc1ncccc1C(=O)Nc1ccc(C(=O)Nc2ccc(OC)cc2)cc1	-2.1
COCc1c(C(=O)OCC(=O)N2CCCC2=O)oc2ccccc12	-4.8
COc1cc(NC(=O)c2c(OC)cccc2OC)ccc1NC(=O)c1cc2ccccc2o1	28.8
COc1ccc(C2=CC(=O)C[C@H](c3ccc4c(c3)OCO4)C2)cn1	-0.7
Cc1ccccc1NC(=O)CSC(=O)c1ccccc1	6.2
CNC(=O)c1cccc(NC(=O)CCCNC(=O)c2ccc(Cl)cc2)c1	-1.3
COCCNC(=O)N1[C@H]2CC[C@@H]1C(C(=O)OC)=C(c1ccc(OC(F)(F)F)cc1)C2	1.6
CC(=O)Nc1ccc(NC(=O)COC(=O)c2ccc([N+](=O)[O-])o2)cc1	85.5
CCc1ccc(CNC(=O)c2ccc(OC)c(OC3CCN(C(C)C)CC3)c2)nc1	u
Cc1ccc(NC(=O)COC(=O)c2c(-c3ccccc3)noc2C)c(C)c1	-4.4
Cc1ccc(-c2noc(C3CCCN(C(=O)c4ccc(Cl)cc4)C3)n2)o1 (stereo not given)	-1.6
O=C(O)c1ccc(NC(=O)c2ccc(Cl)cc2)c(NC(=O)c2ccc(Cl)cc2)c1	-2.7
COc1ccc(CCNC(=O)c2oc3ccccc3c2C)cc1	-6.9
COc1cc(OC)cc(-c2c(C#Cc3ccsc3)c3cc(-c4ccc(OC)c(F)c4)ccc3n2C)c1	-1.4
CCCn1c(SCC(=O)Nc2cc(C)on2)n[nH]c1=O	-1.7
Cc1cccc(NC(=O)c2cccc(OC(=S)N3CCOCC3)c2)c1C	-1.5
CS(=O)(=O)c1ccc(Cl)c(NC(=O)CN2CCN(C(=O)c3cccs3)CC2)c1	-5.5
O=C(C[C@@H]1C/C=C\C[C@@H](Cc2ccc(F)cc2)C(=O)OC[C@@H](Cc2ccccc2)NC1=O)N[C@H](CO)Cc1ccccc1	-6.7
Cc1ccc(C)c(OCC(=O)NNC(=O)C2CCC2)c1	-1.3
CC1(C2CC2)NC(=O)N(CC(=O)N2CCN(c3cccc(C(F)(F)F)c3)CC2)C1=O (stereo not given)	-2.5
COc1ccc(/C=C\C(=O)O[C@@H]2C(O)C(O[C@@H]3OC(C)[C@H](O[C@@H]4OCC(O[C@H]5O[C@H](CO)[C@@H](O)C(O)C5O)C(O)C4O)C(O)C3O)[C@H](OC(=O)[C@]34CCC(C)(C)C[C@@H]3C3=CCC5[C@@]6(C)CC(O)C(O[C@@H]7OC(CO)C(O)[C@H](O)[C@H]7O)[C@@](C)(C(=O)O)C6CC[C@@]5(C)[C@]3(CO)CC4)O[C@H]2C)cc1 (stereo not given in full)	2.6
O=S(=O)(c1ccc(SCc2ccccc2F)nc1)N1CCCC1	7.1
C[C@H](CO)N1C[C@H](C)[C@@H](CN(C)S(=O)(=O)c2ccccc2)Oc2ccc(NC(=O)Nc3ccccc3)cc2C1=O	-6.2
COc1ccc(S(=O)(=O)N2CCCCCC2)cc1NC(=O)c1ccccc1S(C)(=O)=O	1.6
CN(Cc1ccco1)c1ncnc2ccc(-c3ccc4c(ccn4C)c3)cc12	96.4
CC(=O)c1ccc(NC(=O)[C@@H]2CCCN2C2=NS(=O)(=O)c3ccccc32)cc1	-3.6
Cc1ccc(S(=O)(=O)N2[C@@H](c3ccccc3)C(C(=O)O)=CC[C@H]2c2cccc(C)c2)cc1	-5.0
NS(=O)(=O)c1ccc(CCNC(=O)CNC(=O)c2ccc(Br)o2)cc1	-5.5
C=CC[C@H](CC(=O)OC(C)(C)C)C(=O)OC[C@H]1CCCN1C(=O)[C@H](CC=C)CC(=O)NCCO	-5.0
CC(=O)Nc1ccc(C(=O)NNC(=O)c2ccccc2-n2cccc2)cc1	1.9
O=C(CN1C(=O)NC(c2ccccc2)(c2ccccc2)C1=O)NCc1ccc(F)cc1	-8.5
C[C@@]12C(=O)Nc3ccc(Cl)cc3C(=O)N1[C@H]1c3cc(Br)ccc3OC[C@@H]1[C@@H]2c1ccccc1	2.6
O=C(COc1ccc2c(c1)OCO2)NCc1cccs1	1.6
CCN(CC)S(=O)(=O)c1ccc(Cl)c(NC(=O)COC(=O)C2CCCCC2)c1	-0.7
Cc1ccc(S(=O)(=O)NCC(=O)OCC(=O)Nc2ccc(C)c(S(=O)(=O)N3CCOCC3)c2)cc1	-2.4
Cc1ccc(SCC(=O)Nc2cccc(S(=O)(=O)N3CCOCC3)c2)cc1C	1.3
Cc1ccc(S(=O)(=O)N2CCCCC2)cc1NC(=O)COC(=O)c1ccc(=O)[nH]c1	-15.0
C=CC[C@@H](Cc1ccc(F)cc1)C(=O)OC[C@@H]1CCCN1C(=O)[C@@H](CC=C)CC(=O)N[C@H](CO)Cc1ccccc1	3.8
COc1ccc2cc(C(=O)NCc3ccccc3CN3CCCC3)ccc2c1	0.6
O=C(CN1CCCC1c1ccc2c(c1)OCCO2)NC(=O)Nc1ccccc1 (stereo not given)	-3.7
COC(=O)c1ccc(N2CC3CNC(=O)C2(C(=O)OC)N3C)cc1 (stereo not given)	-3.5&9.2
CN1CCN(C(=O)c2ccc(S(=O)(=O)Nc3ccccc3)cc2)CC1	5.0
COc1ccc(NC(=O)CSc2n[nH]c(=O)n2C2CC2)cc1OC	-3.6
CC1CCCN(C(=O)c2ccc(Br)c(S(=O)(=O)N3CCOCC3)c2)C1 (stereo not given)	-2.8
COc1ccc(CNC(=O)[C@H](Cc2c[nH]c3ccccc23)NC(C)=O)cc1OC	-1.2
c1ccc(Nc2ccc(Nc3ccccc3)cc2)cc1	62.4
C[C@H](CO)N1C[C@H](C)[C@@H](CN(C)C(=O)Nc2ccc(C(F)(F)F)cc2)Oc2ccc(NC(=O)C3CCCCC3)cc2C1=O	8.4
C[C@@H]1CN([C@@H](C)CO)C(=O)c2cccc(NS(C)(=O)=O)c2O[C@H]1CN(C)Cc1ccc(Oc2ccccc2)cc1	7.6
CCCN(CC(=O)Nc1ccccc1C)C(=O)C1CC(=O)N(c2ccc(CC)cc2)C1 (stereo not given)	-1.8
Cc1cc(C(=O)OCC(=O)Nc2ccccc2C)c(C)o1	-3.1
Cc1c(NC(=O)CSCc2ccco2)c(=O)n(-c2ccccc2)n1C	-1.7
Cc1noc(C)c1C(=O)OCC(=O)Nc1ccc(S(N)(=O)=O)cc1	-5.6
COc1cc(/C=C/[N+](=O)[O-])ccc1OC(=O)/C=C/c1ccc(F)cc1	98.8
CCOc1ccc(S(=O)(=O)NCCC(=O)NCc2ccc(OC)c(OC)c2)cc1	3.2
ClC(Cl)=C(c1ccc(Cl)cc1)c1ccc(Cl)cc1	13.3
CCN(C[C@H]1N[C@@](CC)(C(=O)OC)[C@H]2C(=O)N(C)C(=O)[C@@H]12)C(=O)c1ccc(C(C)(C)C)cc1	0.7

Random excerpt: 3 records from the list.
SMILES	Mtb betalactam
COC(=O)c1ccc(N2CC3CNC(=O)C2(C(=O)OC)N3C)cc1 (stereo not given)	-3.5&9.2
CCOc1ccc(S(=O)(=O)NCCC(=O)NCc2ccc(OC)c(OC)c2)cc1	3.2
COc1ccc(NC(=O)CSc2n[nH]c(=O)n2C2CC2)cc1OC	-3.6

New compounds follow.
SMILES	Mtb betalactam
COc1cc(OC)cc(C(=O)NC(C(=O)OCn2nnc3ccccc3c2=O)C(C)C)c1 (stereo not given)	1.1
CCOC(=O)N1CCN(C(=O)COC(=O)c2ccc(Cl)nc2)CC1	2.9
CCC(C)c1ccccc1OCCCN(C)Cc1ccccc1 (stereo not given)	-1.9
Cc1c(C(=O)O)cccc1[N+](=O)[O-]	-7.6
COc1ccccc1/C=C/C(=O)OCC(=O)Nc1ccc2c(c1)OCCO2	10.6
O=C(NCC1COCCO1)c1ccc2nc(Cc3cccc(Cl)c3)oc2c1 (stereo not given)	u
O=C(OCC(=O)N(Cc1ccccc1)Cc1ccccc1)c1ccccc1O	77.6
O=C1C(Cc2ccccc2)Nc2ncnc(N3CCc4ccccc4C3)c2N1Cc1ccccc1 (stereo not given)	2.0
C[C@H](CO)N1C[C@H](C)[C@@H](CN(C)C(=O)Nc2ccc(C(F)(F)F)cc2)Oc2c(NS(=O)(=O)c3ccccc3)cccc2C1=O	9.1
COc1ccc(C)cc1S(=O)(=O)N1CCc2ccccc2C1	-5.7
C[C@H]1COC(=O)[C@H](CC(=O)OC(C)(C)C)C/C=C\C[C@@H](CC(=O)N[C@@H](CO)Cc2ccccc2)C(=O)N1	-1.7
Cc1ccc2oc(C(=O)Nc3cc(C)on3)c(C)c2c1	6.6
Cc1cc(C)n(-c2ccc(C(=O)OCC(=O)N3CCN(c4ccccc4)CC3)cc2)n1	97.1
O=C(NCC(c1ccco1)N1CCCCC1)c1ccc(S(=O)(=O)Nc2ccccc2Cl)cc1 (stereo not given)	2.8
COc1ccc(NC(=O)N(C)C[C@H]2Oc3c(NC(=O)Nc4ccc5c(c4)OCO5)cccc3C(=O)N([C@H](C)CO)C[C@@H]2C)cc1	3.4
C[C@H]1COC(=O)[C@@H](CC(=O)OC(C)(C)C)C/C=C\C[C@@H](CC(=O)N(CCO)Cc2ccccc2)C(=O)N1	-4.6
C=CCn1c(SCC(=O)N(CC)C2CCS(=O)(=O)C2)nc2cc(C(=O)O)ccc2c1=O (stereo not given)	-8.9
Cc1c(O)c(C)c2c(c1O)C(=O)C[C@@H](c1ccccc1)O2	-3.9
COC(=O)C1=C(c2cccc(C#N)c2)C[C@@H]2CC[C@H]1N2C(=O)NCc1cccc2ccccc12	-2.1
Cn1nnnc1Sc1ncnc2scc(-c3ccccc3Cl)c12	-7.2

Laid out differently: four of the compounds above
> CCCCN(C(=O)C(C)Oc1ccc(Br)cc1)c1c(N)n(CC(C)C)c(=O)[nH]c1=O (stereo not given)
  Mtb betalactam = 2.9

> Cc1cc(Cl)c(C)c(S(=O)(=O)N2CCN(CC(=O)N3CCOCC3)CC2)c1Cl
  Mtb betalactam = -4.8

> CC(=O)c1c(C)[nH]c(C(=O)NNC(=O)c2ccc(Br)cc2)c1C
  Mtb betalactam = -3.8

> CCOc1ncccc1C(=O)Nc1ccc(C(=O)Nc2ccc(OC)cc2)cc1
  Mtb betalactam = -2.1

Additional compounds:
SMILES	Mtb betalactam
CC(=O)c1cccc(NCC(=O)Nc2cc(S(=O)(=O)N3CCCCC3)ccc2C)c1	-5.0
Cc1noc(C)c1NC(=O)N(C)C[C@@H]1Oc2c(NC(=O)NC(C)C)cccc2C(=O)N([C@@H](C)CO)C[C@@H]1C	4.2
Cc1cc(Br)ccc1NC(=O)CN(C)C(=O)CSC(=S)N1CCCC1	-17.5
Cc1[nH]c2ccccc2c1C(=O)COC(=O)C1CC(O)CN1S(=O)(=O)c1ccc(Cl)cc1 (stereo not given)	-9.0
CN(CC(=O)Nc1ccc(F)cc1)C(=O)Cc1ccsc1	-1.6
COc1cc(OC)cc(-c2cc3ccc(F)cc3cn2)c1	6.4
O=C(COC(=O)c1ccc(O)cc1O)NC1CC1	-1.5
O=C(NC(=S)NCc1ccco1)c1cccc(Cl)c1	u
C[C@H](CO)N1C[C@H](C)[C@@H](CN(C)C(=O)Nc2ccccc2)Oc2c(NC(=O)NC3CCCCC3)cccc2C1=O	-0.4
N#C/C(=C\c1ccccc1)C(=O)NNS(=O)(=O)c1cccc([N+](=O)[O-])c1	2.4
COc1cc(C(=O)N2CCN(S(=O)(=O)c3ccc(C)cc3C)CC2)ccc1OCC(=O)N1CCOCC1	-6.2
CCOc1ccccc1NC(=O)C1CCCN1C(=O)c1cccs1 (stereo not given)	3.3
C[C@@H](C(=O)N1CCN(c2ccccc2)CC1)N1C(=O)C2CC=CCC2C1=O (stereo not given in full)	-1.8
COc1ccc(S(=O)(=O)Nc2ccc3cn[nH]c3c2)cc1[N+](=O)[O-]	-7.3
COCC(C)n1c(C)cc(C(=O)CSc2nnnn2C2CCCC2)c1C (stereo not given)	-1.7
CC(Sc1nnc(-c2ccco2)n1-c1ccccc1)C(=O)NCC1CCCO1 (stereo not given)	-4.3
COc1cccc(NC(=O)CN(C)C(=O)c2ccc(S(=O)(=O)Nc3ccccc3C)cc2)c1	-2.1
CCc1nc(SCC(=O)Nc2ccccc2Cl)n[nH]1	4.9
Cc1ccc(C(C)NC(=O)c2ccc3c(c2)OCCO3)cc1C (stereo not given)	-6.8
O=C(COC(=O)c1ccco1)Nc1nc2c(F)c(F)c(F)cc2s1	2.1
CSCC[C@H](NC(=O)OC(C)(C)C)C(=O)N1CCC(C(=O)N[C@@H](C)C(=O)NC(C)c2ccccc2)CC1 (stereo not given in full)	-8.1
COc1ccccc1NC(=O)CN1C(=O)NC2(CCCc3ccccc32)C1=O (stereo not given)	-0.9
O=C(NCCCCc1ccccc1)c1cc([N+](=O)[O-])cc([N+](=O)[O-])c1	99.6
Cc1cccn2c(=O)c3cc(C(=O)NCC4CCCO4)c(=N)n(C4CCCCC4)c3nc12 (stereo not given)	7.0
CCc1nc2ccccc2c(C(=O)OCC(=O)Nc2ccc(NC(C)=O)cc2)c1C	-6.6
O=C1CC[C@@H](O)CCN1CC[C@H](Sc1ccc(Br)cc1)c1ccccc1	4.7
C=CCn1c(C)cc(C(=O)CN2C(=O)c3ccccc3S2(=O)=O)c1C	6.0
CCOC(=O)C1CCN(C(=O)c2cc(S(=O)(=O)N3CCOCC3)ccc2C)CC1	-5.4
COc1ccc(OC)c(/C=C/C(=O)N(C)CC(=O)Nc2ccc(N3CCOCC3)cc2)c1	-4.2
COc1ccc(C(CNC(=O)C(CCSC)NC(=O)c2ccccc2Cl)N2CCCC2)cc1 (stereo not given)	-1.9
Nc1ncnc2c1ncn2[C@@H]1O[C@H](COP(=O)(O)OP(=O)(O)OP(=O)(O)O)[C@@H](O)[C@H]1O	-6.6
